HSV augment: increases HSV replication in cells. maximum fold increase. HSV replication augmentation in cells, fold increase. actives 0.005% (n = 220,000);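 active means peak rise of 1.5-fold or more in the series; tested in PC3 cells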;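 further: first round at 10 µM; read as green reporter fluorescence; hits show the peak of a series up to 25 µM; 1 = signal of infected wells without compound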
GALR2 ag: GALR2 (human) receptor agonism. AID 803. actives 0.48% (n = 140,000). GALR2-expressing cells, agonist activation read-out. activation, %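 (tested at 5 µM)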;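 active means above mean plus 3 SD of all compounds, about 5% in these data, not always enough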;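 further: 0% = vehicle buffer wells and 100% = reference agonist at full effect; tested in CHO reporter cells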
INS promoter inh: TRM-6 insulin promoter activity inhibition | inhibition, % at 2 µM | TRM-6 cells (human fetal islet line), insulin promoter-eGFP reporter, imaging; reporter expression induced with tamoxifen | actives 0.9% (n = 130,000);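 active means inhibition above the mean plus 3 SD, with well images judged a real hit on visual review, cut at about 60% in these data, passing the limit was not always enough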
RGS16-Gao: regulators of human RGS16-Galphao interaction | binding response (% of control), % at 10 µM | AID 1441 | bead-based flow cytometry RGS16-Galphao binding, fluorescence; actives lie on both sides | actives 0.38% (n = 220,000);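 active means below 25% or above 175%, edge rows of some plates excepted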;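 further: Galphao activated by GDP with aluminum fluoride before binding; 100% = wells without compound and 0% = beads without RGS; some results beyond the cut were filed as inactive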
PKD1 kinase inh: PKD1 (human) kinase inhibition; Q15139; PKD1 kinase fluorescence polarization assay; inhibition, %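 (about 10 µM by stock and volumes)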; actives 0.056% (n = 200,000);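 active means inhibition of 50% or more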;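 further: controls were vehicle for no effect and a reference inhibitor for full effect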
Target sequence (Q15139 whole entry, looked up): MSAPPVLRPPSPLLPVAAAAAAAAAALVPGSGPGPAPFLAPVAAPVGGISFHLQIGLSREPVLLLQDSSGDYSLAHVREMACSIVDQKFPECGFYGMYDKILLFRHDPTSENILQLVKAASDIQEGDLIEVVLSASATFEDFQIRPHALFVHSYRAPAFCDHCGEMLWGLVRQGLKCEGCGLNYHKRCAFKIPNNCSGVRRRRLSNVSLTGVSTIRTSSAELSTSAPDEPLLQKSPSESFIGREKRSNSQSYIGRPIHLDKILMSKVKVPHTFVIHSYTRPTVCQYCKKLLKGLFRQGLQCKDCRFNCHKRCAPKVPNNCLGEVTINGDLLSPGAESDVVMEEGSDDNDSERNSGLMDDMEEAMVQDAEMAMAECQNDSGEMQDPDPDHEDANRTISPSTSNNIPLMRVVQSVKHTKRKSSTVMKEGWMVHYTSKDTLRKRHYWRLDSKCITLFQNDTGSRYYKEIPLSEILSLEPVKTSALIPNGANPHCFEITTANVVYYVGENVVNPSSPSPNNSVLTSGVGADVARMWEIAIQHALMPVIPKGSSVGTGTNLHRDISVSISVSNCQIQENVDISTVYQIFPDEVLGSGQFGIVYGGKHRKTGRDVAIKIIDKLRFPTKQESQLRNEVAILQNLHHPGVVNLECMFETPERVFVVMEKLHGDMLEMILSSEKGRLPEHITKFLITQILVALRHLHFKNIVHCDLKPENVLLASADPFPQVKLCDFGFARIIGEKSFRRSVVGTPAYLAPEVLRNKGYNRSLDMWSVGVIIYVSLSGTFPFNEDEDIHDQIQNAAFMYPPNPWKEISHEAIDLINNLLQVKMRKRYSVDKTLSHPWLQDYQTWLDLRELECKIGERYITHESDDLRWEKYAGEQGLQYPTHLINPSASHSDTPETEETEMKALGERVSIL
INS promoter inh cell count: second read-out of INS promoter inh, no call of its own (marks repeat the call); normalized cell count, %; measured here: cell count, toxicity; reference of the scale not given here;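 cells exposed to compound for 48 h; stained nuclei by imaging scaled within each plate; lower means fewer cells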
HSV augment primary fold: also measured in HSV augment; calls as there; fold increase; compound at 10 µM; measured here: primary screen fold increase 10 uM; tested in PC3 cells;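 GFP signal in the first replicate; 1 = infected wells without compound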
Starred values were filed as active, the others as inactive; i = inactive; · = no result given.

SMILES	HSV augment	HSV augment primary fold	GALR2 ag	INS promoter inh	INS promoter inh cell count	RGS16-Gao	PKD1 kinase inh
CCOC(=O)c1ccc(CNCc2ccc(C)cc2)cc1	i	0.94	-2.2	26	86	116	4
CC(C)(C)OC(=O)NCC(=O)N1CCC(C(=O)O)CC1	i	0.92	-0.7	·	·	104	-4
COc1cc(C(=O)NCc2ccc3c(c2)OCO3)ccc1OCc1c(C)noc1C	i	1	-3.0	·	·	99	-11
CCCCOC(=O)Nc1ccc(C(=O)OC)cc1	i	0.9	-0.4	·	·	99	8
Cc1ccccc1NC(=O)Cc1nc(CCl)cs1	i	1.1	-2.5	43	76	67	-1
CCN1C/C(=N\S(=O)(=O)/N=C2\CN(CC)C(=O)N2CC)N(CC)C1=O	i	1	·	·	·	95	·
Cc1ccccc1CN(c1ccc(C(=O)NCCC2=CCCCC2)cc1)S(C)(=O)=O	i	0.83	-1.0	2	122	100	1
O=C(NCCO)c1cccc2c1C(=O)c1ccccc1-2	i	0.83	-1.2	-21	115	98	-11
Cc1ccc(-c2ccc(=O)n(CC(=O)NCCN(C)C)n2)cc1	·	·	-2.2	-12	77	101	-3
O=C(COC(=O)c1ccccn1)Nc1ccc(S(=O)(=O)N2CCOCC2)cc1	i	1	0.2	-18	112	113	-5
CCN1C2=NCCCN2c2ccccc21	i	0.99	0.1	-15	86	104	2
C=CC(COCc1ccccc1)N(Cc1ccc(OC)cc1)S(=O)(=O)c1ccccc1Br (centres undefined)	i	1.1	·	·	·	92	·
Cc1ccc(OCC(=O)N/N=C/c2ccncc2)cc1C	i	0.98	·	·	·	103	·
CC(NC(=S)NCCN1CCOCC1)C12CC3CC(CC(C3)C1)C2 (centres undefined)	i	0.89	·	·	·	103	3
COc1cccc(NC(=O)CN(C)C(C)C(=O)Nc2cc([N+](=O)[O-])ccc2Cl)c1 (centres undefined)	i	0.88	·	·	·	97	-3
O=S(CCc1ccncc1)Cc1ccccc1 (centres undefined)	i	0.82	-1.0	-16	54	99	-6
CCn1c2ccccc2c2nnc(SCC(=O)Nc3ccc4c(c3)OCO4)nc21	i	0.85	-1.4	·	·	86	5
O=C(CNS(=O)(=O)c1cccs1)N1CCc2ccccc2C1	i	0.95	-3.0	-15	115	103	-18
COc1ccc(/C=N/NC(=O)Cn2nnc3ccccc32)cc1OC	i	0.91	-1.9	3	124	98	-3
COc1ccc(/C=N/NC(=O)CN2CCSCC2)c(OC)c1	i	1	-0.4	-17	76	111	-4
COc1ccc(N2CC(NC(=O)NCCC(C)C)CC2=O)cc1 (centres undefined)	i	0.95	-0.9	·	·	105	3
C=C(C)c1cccc(C(C)(C)NC(=O)N2CCN(CC(N)=O)CC2)c1	i	0.96	-0.5	14	116	97	-6
Cc1ccccc1NC(=O)Cn1nnc2sc3c(c2c1=O)CC(C)(C)OC3	i	0.94	·	·	·	116	·
COc1ccc(C2SCC(=O)N2CC23CC4CC(CC(C4)C2)C3)cc1 (centres undefined)	i	0.95	-2.2	-37	137	100	-7
Cn1ncc2c1ncn1nc(COc3ccc4ccccc4c3)nc21	i	0.99	-2.6	·	·	102	-2
CC1(C)CC2=C(CO1)C(=S)NC(c1ccccc1)N2CC1CCCO1 (centres undefined)	i	0.93	·	·	·	99	·
COc1ccc(C2C3=C(CC(C)(C)CC3=O)Oc3ncn(CCO)c(=N)c32)cc1OC (centres undefined)	i	1	-0.9	48	85	102	4
Cc1ccc(NC(=O)CCC(=O)NNC(=O)/C=C/C(=O)O)c(C)c1	i	1.1	-0.5	·	·	97	-11
CCCC(NC(=O)c1c(C)noc1C)C12CC3CC(CC(C3)C1)C2 (centres undefined)	i	1	·	·	·	102	-4
O=C(Nc1ccccc1)c1ccc(NCC2CCCO2)c(S(=O)(=O)N2CCOCC2)c1 (centres undefined)	i	1	-0.6	-55	137	98	-6
O=C(O)c1ccc(N=NN2CCCCCC2)cc1	i	1	-1.7	11	63	85	-9
CC(C)CN(C(=O)CCc1ccccc1)c1c(N)n(CC(C)C)c(=O)[nH]c1=O	i	1	-1.6	-27	159	101	-14
CCOc1ccc(C(=O)N2CCN(c3ccccc3)CC2)cc1OCC	i	0.97	0.1	·	·	103	0
CNC(=O)c1nc(C)n(-c2cc(Cl)ccc2Cl)n1	i	0.87	-0.3	·	·	100	1
NCCNc1ccc([N+](=O)[O-])c(Sc2nc3ccccc3[nH]2)c1	i	0.95	0.0	10	126	105	-7
O=C(NCC(=O)N(c1cccnc1)C(C(=O)NC1CCCC1)c1ccccc1)c1ccco1 (centres undefined)	i	1	·	53	99	99	-5
COc1ccc(CC(=O)NNC(=O)CCc2ccccc2)cc1	i	1	·	·	·	96	-5
O=C1CSC(c2ccccc2F)N1 (centres undefined)	i	0.98	·	·	·	105	·
Cc1ccc(C(=O)N2CCN(c3cc(=O)[nH]nc3-c3ccccc3)CC2)cc1	i	0.87	-0.9	46	157	99	-12
Cc1nc2ccccn2c1C(=O)NC1CCCc2ccccc21 (centres undefined)	i	0.94	·	·	·	102	-1
O=C(CCCC(=O)OCC(=O)NC1CCCC1)Nc1ccccn1	i	0.9	-0.4	3	175	92	2
COc1ccc(/C(O)=C2\C(=O)C(=O)N(CCN(C)C)C2c2cccc(OC)c2OC)cc1Cl (centres undefined)	i	0.92	-0.9	18	63	73	2
O=C(NCCCCCCNC(=O)NCc1ccco1)NCc1ccco1	·	·	-1.5	0	84	101	-3
CCc1cc(CNC(=O)CCc2nnc(CCCc3ccccc3)o2)on1	i	0.95	·	·	·	96	1
CCCCN(C)C(=O)c1oc2ccc(S(=O)(=O)N3CCCCCC3)cc2c1C	i	0.96	-0.2	15	121	98	-11
N#Cc1cccnc1Oc1ccccc1	i	0.92	·	·	·	102	·
CCc1nnc(NC(=O)C2Cc3ccccc3CN2S(=O)(=O)c2ccc(C)cc2)s1 (centres undefined)	i	0.95	-0.1	-103	44	92	1
CC/C(O)=C(\C#N)c1nnc2n1CCCCC2	i	1.1	-3.0	16	172	96	-8
COCCn1nnnc1CN1CCN(c2cccc(C(F)(F)F)c2)CC1	i	0.97	-1.4	·	·	61	-3
N#C/C(=C\c1ccc(-c2ccc([N+](=O)[O-])cc2Br)o1)C(=O)N1CCN(c2ccccc2)CC1	i	1.3	-0.9	·	·	104	-19
C/C(=N\NC(=O)c1cccnc1)c1ccc(-n2ccnc2)cc1	i	1.1	·	·	·	102	-1
COc1ccc(N=C2S/C(=C\c3ccco3)C(=O)N2CC(C)C)cc1	i	0.96	-1.5	·	·	104	2
CCOC(=O)c1oc2cc(O)c(CC)cc2c(=O)c1-c1ccc2c(c1)OCCO2	i	0.88	-0.5	0	32	106	-5
CCOc1ccc(C(=O)Nc2cccc(C(=O)O)c2)cc1Cl	i	0.79	·	·	·	103	2
O=C1[C@@H]2[C@H]3CC[C@H](C3)[C@@H]2C(=O)N1O	i	1.3	·	·	·	30	·
CCOC(=O)c1sc(NC(=O)c2ccco2)nc1-c1ccccc1	i	0.85	-0.7	·	·	104	1
COc1cccc(CNC(=O)C2CCCN(S(=O)(=O)c3cnc[nH]3)C2)c1 (centres undefined)	i	0.99	-0.6	·	·	144	-8
C/C=N/NC(=O)c1cc(Br)ccc1O	i	0.99	-1.7	·	·	102	2
CCOC(=O)N1CCC(NC(=O)c2cc(S(=O)(=O)N3CCC4(CC3)OCCO4)ccc2F)CC1	i	1.1	-3.3	·	·	110	10
Cc1ccc(S(=O)(=O)NCC(=O)N2CCCC2)cc1	i	0.97	-3.7	-13	108	101	-2

3 entries drawn at random from the list so far, as already listed:
SMILES	HSV augment	HSV augment primary fold	GALR2 ag	INS promoter inh	INS promoter inh cell count	RGS16-Gao	PKD1 kinase inh
C/C(=N\NC(=O)c1cccnc1)c1ccc(-n2ccnc2)cc1	i	1.1	·	·	·	102	-1
COc1ccc(N=C2S/C(=C\c3ccco3)C(=O)N2CC(C)C)cc1	i	0.96	-1.5	·	·	104	2
CCOC(=O)N1CCC(NC(=O)c2cc(S(=O)(=O)N3CCC4(CC3)OCCO4)ccc2F)CC1	i	1.1	-3.3	·	·	110	10

Back to the main list; the four compounds before the break are reprinted first.
SMILES	HSV augment	HSV augment primary fold	GALR2 ag	INS promoter inh	INS promoter inh cell count	RGS16-Gao	PKD1 kinase inh
COc1cccc(CNC(=O)C2CCCN(S(=O)(=O)c3cnc[nH]3)C2)c1 (centres undefined)	i	0.99	-0.6	·	·	144	-8
C/C=N/NC(=O)c1cc(Br)ccc1O	i	0.99	-1.7	·	·	102	2
CCOC(=O)N1CCC(NC(=O)c2cc(S(=O)(=O)N3CCC4(CC3)OCCO4)ccc2F)CC1	i	1.1	-3.3	·	·	110	10
Cc1ccc(S(=O)(=O)NCC(=O)N2CCCC2)cc1	i	0.97	-3.7	-13	108	101	-2
COc1ccc(/C=N/NC(=O)c2cccc(O)c2)cc1Cn1nc(C)c([N+](=O)[O-])c1C	i	0.78	·	·	·	101	1
NC(=S)N/N=C/c1coc2c(ccc3ccccc32)c1=O	i	0.95	4.2	·	·	108	-14
COc1ccc(S(=O)(=O)NCCc2nnc3ccc(SCC(=O)Nc4nc(C)cs4)nn23)cc1	i	0.91	0.0	-31	126	101	-7
O=C(Nc1ccon1)c1sc2cc(F)ccc2c1Cl	i	0.83	-2.0	8	120	100	-7
CN(/C=C/C(=O)C(F)(F)F)Cc1ccccc1	i	0.92	-3.2	-22	113	105	-11
COC(=O)N(NC(=O)C(O)(c1ccccc1)c1ccccc1)c1ccc(C)cc1	i	1.1	-1.1	·	·	99	6
O=C(Cc1c[nH]c2ccccc12)NC1(C(=O)NC2CCCC2)CCCCC1	i	1	·	-20	104	103	1
CCc1nc2ccc(C)cc2c(C(=O)NC2CCCCC2C)c1C (centres undefined)	i	0.86	-0.8	-58	62	104	-10
O=c1[nH]ncc2c3ccccc3n(Cc3ccccc3)c12	i	0.94	0.3	·	·	96	-3
C=CCc1c(C)nn(CC(=O)O)c1-c1ccccc1	i	1	-1.3	-96	141	107	-6

Reformatted: entries from further up
Structure | HSV augment | HSV augment primary fold | GALR2 ag | INS promoter inh | INS promoter inh cell count | RGS16-Gao | PKD1 kinase inh
NC(=S)N/N=C/c1coc2c(ccc3ccccc32)c1=O | i | 0.95 | 4.2 | · | · | 108 | -14
COc1ccc(S(=O)(=O)NCCc2nnc3ccc(SCC(=O)Nc4nc(C)cs4)nn23)cc1 | i | 0.91 | 0.0 | -31 | 126 | 101 | -7
O=C(Nc1ccon1)c1sc2cc(F)ccc2c1Cl | i | 0.83 | -2.0 | 8 | 120 | 100 | -7
CN(/C=C/C(=O)C(F)(F)F)Cc1ccccc1 | i | 0.92 | -3.2 | -22 | 113 | 105 | -11
COC(=O)N(NC(=O)C(O)(c1ccccc1)c1ccccc1)c1ccc(C)cc1 | i | 1.1 | -1.1 | · | · | 99 | 6
O=C(Cc1c[nH]c2ccccc12)NC1(C(=O)NC2CCCC2)CCCCC1 | i | 1 | · | -20 | 104 | 103 | 1

Screens as filed in PubChem BioAssay.
